Screens from PubChem.
Rce1 inhib – yeast Ras-converting enzyme inhibition | Q03530 | yeast membranes, quenched prenylated peptide cleavage fluorescence | calls only | 290,000 compounds, 0.27% hits;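 active means fall in fluorescence gain of 50% or more versus controls, with final raw signal at or below 3038400; inconclusive means same 50% fall but final raw signal above 3038400; inactive means fall in fluorescence gain under 50%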;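 further: plate controls were neutral control wells for no effect and wells lacking membranes for full effect; tested at 10 µM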
Target sequence (Q03530 whole entry, looked up): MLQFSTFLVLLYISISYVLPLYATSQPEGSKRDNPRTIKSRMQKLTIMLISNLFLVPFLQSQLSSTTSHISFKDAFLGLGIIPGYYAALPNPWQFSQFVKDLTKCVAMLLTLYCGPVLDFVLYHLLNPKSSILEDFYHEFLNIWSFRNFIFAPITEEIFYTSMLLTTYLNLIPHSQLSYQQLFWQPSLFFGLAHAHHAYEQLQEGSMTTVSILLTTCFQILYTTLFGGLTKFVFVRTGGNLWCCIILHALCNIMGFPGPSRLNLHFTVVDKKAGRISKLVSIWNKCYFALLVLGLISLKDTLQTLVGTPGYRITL
Yeast UUG start – alters start codon recognition fidelity in yeast; 350,000 compounds, 0.13% hits; activity score, % at 18.7 µM; S. cerevisiae UUG-firefly luciferase reporter, luminescence/redox ratio;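 active means replicate mean at a twofold rise or more, about +100% in these data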;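 further: firefly luciferase made from a UUG start codon reports start codon fidelity; reporter light over untreated wells divided by growth signal over untreated wells; some hits fall short of that in this replicate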
PABP FP inh – PABP-poly(A) binding inhibition | PABP-poly(A) RNA binding, fluorescence polarization | inhibition, % at 35 µM | 290,000 compounds, 1% hits;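 active means 50% or more with normal probe brightness, or confirmed in later tests; inconclusive means above 50% with abnormal brightness, or retests that disagree; inactive means below 50% or failed in later tests; about a fifth of its hits are not listed in these tables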;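 further: calls also rest on retests at 20 µM and on dose response follow-up; controls were probe without protein and protein plus probe with vehicle; some compounds called inactive have numbers as strong as hits; many hits fall short of the cut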
Target sequence (P11940 whole entry, looked up): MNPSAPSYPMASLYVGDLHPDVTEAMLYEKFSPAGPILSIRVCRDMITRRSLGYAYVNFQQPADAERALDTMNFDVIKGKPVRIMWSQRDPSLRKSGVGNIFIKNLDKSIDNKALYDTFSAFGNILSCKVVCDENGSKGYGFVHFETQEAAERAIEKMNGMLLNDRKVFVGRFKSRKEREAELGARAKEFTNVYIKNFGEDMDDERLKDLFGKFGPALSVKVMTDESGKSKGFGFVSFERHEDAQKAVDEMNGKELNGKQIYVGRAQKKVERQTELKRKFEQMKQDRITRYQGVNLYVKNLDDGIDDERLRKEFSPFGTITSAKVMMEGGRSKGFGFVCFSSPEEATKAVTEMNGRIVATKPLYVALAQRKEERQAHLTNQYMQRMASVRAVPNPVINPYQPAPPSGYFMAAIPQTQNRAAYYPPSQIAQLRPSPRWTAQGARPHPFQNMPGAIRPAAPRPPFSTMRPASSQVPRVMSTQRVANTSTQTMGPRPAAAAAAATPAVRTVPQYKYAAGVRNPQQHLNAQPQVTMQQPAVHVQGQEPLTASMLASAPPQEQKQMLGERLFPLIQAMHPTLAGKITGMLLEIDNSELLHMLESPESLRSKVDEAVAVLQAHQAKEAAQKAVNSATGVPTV
eIF4H inh – inhibitors of RNA binding by human eIF4H; eIF4H fluorescence polarization binding assay; inhibition, % at 35 µM; 290,000 compounds, 0.94% hits;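 active means 50% or more with normal probe brightness, or confirmed in later tests; inconclusive means above 50% with abnormal brightness, or retests that disagree; inactive means below 50% or failed in later tests; about a fifth of its hits are not listed in these tables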;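 further: calls also rest on retests at 20 µM and on dose response follow-up; 0% = protein and probe with vehicle and 100% = probe without protein; strong numbers were not always called active; many hits fall short of the cut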
Env fusion inh – blocks HIV Env-driven cell-cell fusion. HeLa-JRFL Env/CEM21 cell fusion, luciferase. inhibition, % at 12.3 µM. 360,000 compounds, 1.1% hits;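 active means mean replicate inhibition score of at least 50 and every replicate individually at or above 50; inconclusive means only one of the two criteria met; inactive means mean below 50 and not all replicates reaching 50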;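 further: 0% = plate neutral controls and 100% = maraviroc near 300 nM; one replicate is shown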
MT1-MMP act inh – MT1-MMP (human) activation inhibition; P50281; HT1080 RFP-PRO-GFP cells, GFP/RFP ratio fluorescence, overnight; percent of plate control window, DMSO zero; GFP/RFP ratio change, % at 20 µM; 360,000 compounds, 0.061% hits; AID 651647;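 active means GFP/RFP ratio change of at least 30% with cell ATP level not reduced by more than half and red fluorescence within 50% of control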; further: strong numbers were not always called active
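Material – HT1080 RFP-PRO-GFP cells · Control set – DMSO wells and RFP-L50D-GFP cells · Incubation – overnight cell settling, then overnight compound exposure, 37 °C, 5% CO2 · Compound dosing – single-point 20 µM compound, 1% DMSO · Read-out – GFP/RFP fluorescence ratio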
CSC inhib – cancer stem cell inhibition. 300,000 compounds, 1.1% hits. inhibition, % at 7.5 µM. cancer stem cell-like cells viability, luminescence;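 active means mean at 75% or more and at least half the replicates too; inconclusive means mean and replicates disagree; tested in HMLE shEcad cells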;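 further: 0% = median of negative and 100% = median of positive control wells; the first replicate is given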
eIF4H inh retest – second read-out of eIF4H inh, no call of its own (marks repeat the call); inhibition, %; compound at 20 µM; confirmation average;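 mean of two retest wells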
PABP FP inh retest – recorded beside PABP FP inh, whose call it bears; inhibition, %; compound at 20 µM; confirmation repeats;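 mean of two retest wells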
MT1-MMP act inh RFP – also measured in MT1-MMP act inh; calls as there; RFP signal change, %; measured here: RFP expression control read;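 0 = vehicle wells; hits needed this value within 50% of zero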
An asterisk follows results filed as active; i = inactive; ? = inconclusive; / = not tested or not shown; + = active, no number.

SMILES | Rce1 inhib | Yeast UUG start | PABP FP inh | eIF4H inh | Env fusion inh | MT1-MMP act inh | MT1-MMP act inh RFP | CSC inhib | others
Cc1ccccc1CS(=O)(=O)c1nnc([C@H](Cc2ccccc2)NC(=O)OC(C)(C)C)o1 | i | -15 | -7 | 1 | / | 14 | -2 | 99*
CCCCC(CC)CNS(=O)(=O)c1ccc2c(c1)CCN2C(=O)CCC(=O)O (stereo unspecified) | i | -19 | -10 | 5 | -13 | 4 | 5 | -4
CCCCn1c(=O)c(-c2ccccc2)c(O)c2ccccc21 | + | 3 | 12 | 4 | -26 | 1 | 2 | -9
Cc1ccc(OCCC(=O)OCC(=O)c2c(N)n(C)c(=O)n(C)c2=O)cc1 | i | -1 | / | / | 0 | / | / | -14
CCN1C(=O)[C@H]2[C@@H](c3ccc(C)cc3)N[C@]3(CCCN(CCC(C)C)C3=O)[C@H]2C1=O | / | -18 | / | / | 28 | 4 | 6 | /
CCCCn1c(=O)c2c(O)cc(=O)oc2c2ccccc21 | i | -22 | 0 | 2 | -37 | -7 | 4 | -8
O=C(Cc1ccc(S(=O)(=O)N2CCOCC2)s1)N1CCN(S(=O)(=O)c2ccccc2[N+](=O)[O-])CC1 | / | -6 | / | / | 8 | 3 | -6 | /
CCN(CC(=O)Nc1ccc(OC)cc1)C(=O)C1CCN(C(=O)c2ccc(Cl)cc2)CC1 | / | -4 | / | / | 4 | 0 | 1 | -5
COC(=O)c1ccc(NC(=O)CSc2nnc(-c3ccccc3Br)n2-c2ccccc2)cc1 | i | / | / | / | -15 | 2 | 7 | -11
CCOC(=O)c1[nH]c2c(c1C)C(=O)CC(c1ccc(OC)c(OC)c1)C2 (stereo unspecified) | i | -5 | -10 | -4 | / | 2 | -4 | 0
Cc1ccc(-c2ccc(CN3C(C)C(=O)N(Cc4cn(Cc5ccco5)nn4)CCS3(=O)=O)cc2)c(C)c1 (stereo unspecified) | / | -9 | / | / | 31 | -2 | -6 | /
CCc1ccc(NC(=O)Cn2ncc3c4ccccc4n(C)c3c2=O)cc1 | i | -20 | -3 | 2 | 13 | -11 | -3 | 2
COc1ccc(S(=O)(=O)N2CCOCC2)cc1NC(=O)COC(=O)CC1CC2CCC1C2 (stereo unspecified) | / | -4 | / | / | -15 | 0 | 4 | 12
CC(=O)OCCNc1cc(N2CCN(C)CC2)c2noc3c2c1C(=O)c1ccccc1-3 | / | -17 | 4 | -2 | 0 | 9 | -3 | /
COc1ccc(-c2nnc(CSc3nc4ccccc4c(=O)n3C)o2)cc1OC | i | / | -4 | -10 | / | -2 | -6 | 0
C=CC[C@@H](CC(=O)N(CCO)Cc1ccccc1)C(=O)N[C@@H](COC(=O)[C@@H](CC=C)Cc1ccc(F)cc1)Cc1ccccc1 | / | -6 | / | / | 95* | -27 | -25 | /
COc1ccccc1/C=C/CN1CCCC(CCC(=O)NCc2ccccc2F)C1 (stereo unspecified) | i | -11 | -14 | 0 | 22 | -2 | -3 | 4
CC1(C)S[C@@H]2[C@H](NC(=O)COc3ccccc3)C(=O)N2C1C(=O)OCc1ccccc1 (stereo partly specified) | i | 2 | / | / | -9 | -2 | 0 | -10
C#CCOCCOCCOCCNc1nc(N2CCN(C(=O)[C@H](CCC(=O)O)n3cc([C@@H](N)[C@H](C)CC)nn3)CC2)nc(N2CCN(C(=O)[C@H](CCCCN)n3cc([C@@H](N)CC(N)=O)nn3)CC2)n1 | / | 0 | / | / | -11 | 7 | 11 | /
CCCCN(C)C(=O)C1CCN(Cc2cccnc2)CC1 | i | -7 | -1 | -7 | -4 | 0 | 3 | -6
CC(C)(C)CC(C)(C)NC(=S)NC1CCN(Cc2ccccc2)CC1 | i | -28 | 6 | -4 | / | -1 | -6 | -21
COC(=O)c1ccc(/C=C/C(=O)O)cc1 | i | -22 | 6 | 3 | -12 | -3 | -1 | -16
COc1ccc(S(=O)(=O)N2CCN(C(=O)CCC3CCCC3)CC2)cc1 | i | -1 | 5 | 2 | 20 | -1 | -4 | -6
CCOC(=O)C1=C(O)C(Nc2nccs2)(C(F)(F)F)N=C1C (stereo unspecified) | i | / | -8 | 7 | / | 2 | 2 | -2
CN1C(=O)NC(NS(=O)(=O)c2ccc(N)cc2)(C(F)(F)F)C1=O (stereo unspecified) | i | / | 2 | -2 | 9 | -4 | -1 | 2
O=C(NCc1ccccc1Cl)C1=CC=CN2CCS(=O)(=O)N=C12 | / | -24 | / | / | 4 | 0 | 3 | -17
O=C(O)C1Nc2c(Cl)cc(Cl)cc2C2C=CCC12 (stereo unspecified) | i | 7 | 78* | 84* | / | 14 | 16 | -38
N#CC(c1cccc(C(F)(F)F)c1)(c1ncc(C(F)(F)F)cc1Cl)N1CCOCC1 (stereo unspecified) | i | -7 | -10 | 0 | / | -1 | -3 | -2
CC1CCN(C(=O)CN(c2ccc(Cl)c(C(F)(F)F)c2)S(C)(=O)=O)CC1 | i | -3 | -3 | -7 | / | 6 | -1 | -14
CC(=O)c1ccc(OCCNS(=O)(=O)c2ccc(-n3cnnn3)cc2)cc1 | i | -5 | 5 | -12 | 2 | 1 | -2 | -2
Cc1cc(NC(=O)CSc2nc3ccccc3c(=O)n2Cc2ccc(F)cc2)no1 | i | / | -3 | 7 | 0 | -4 | -6 | -7
CCN(CC)CCCn1c2c(c(SCC(=O)Nc3ccc4c(c3)OCO4)nc1=O)CCC2 | i | -18 | / | / | -27 | -6 | 0 | -3
O=C(O)c1ccc(O)c2ncccc12 | / | -25 | / | / | -74 | 6 | 7 | /
Cc1cc(=O)n2nc(N3CCCC3C(=O)NCCCN3CC(C)CC(C)C3)sc2n1 (stereo unspecified) | i | -14 | 3 | -4 | / | -4 | 2 | -10
CCCCN(C(=S)NC(=O)c1ccccc1)c1c(N)n(Cc2ccccc2)c(=O)[nH]c1=O | i | -26 | 27 | 1 | -132 | -3 | -2 | -8
CC12CN(NC(=O)c3ccccc3F)C3(C#N)CC1CCC23C (stereo unspecified) | i | / | -10 | -4 | -3 | -3 | 1 | -14
CC1CC1c1ccc(/C=C(\C#N)C(=O)Nc2ccc(Cl)cc2Cl)o1 (stereo unspecified) | i | / | -2 | 2 | -20 | -7 | 2 | 37
Oc1ccc(Br)cc1C=Nc1ccc2[nH]ncc2c1 | i | -7 | -4 | 53 | 12 | 3 | -1 | 0 | eIF4H inh retest=-1;PABP FP inh retest=-1
Cc1nc(C)c(-c2ccc(SCC(=O)Nc3ccc(C)c(Cl)c3)nn2)s1 | i | -2 | -6 | -6 | 24 | 2 | -14 | -1
CCOC1=C2[C@@H](CN(S(=O)(=O)c3ccc(C)cc3)[C@H]2c2ccccc2Cl)[C@H]2C(=O)N(C)C(=O)[C@H]2C1 | / | 0 | / | / | -3 | -3 | 0 | /
O=C(NCCCn1ccnc1)C(=O)NCC1OCCCN1S(=O)(=O)c1ccc(F)cc1 (stereo unspecified) | i | / | -3 | -2 | 10 | -3 | 3 | -5
COc1ccc(NC(=O)c2nn(C)cc2[N+](=O)[O-])cc1 | i | / | 4 | -5 | -14 | 3 | -3 | 0
COC(=O)c1ccc(S(=O)(=O)c2ccc(C(=O)OC)s2)s1 | / | / | -3 | -9 | / | / | / | -9
CCN(CC)c1ccc(NC(=O)c2cc(OC)cc(OC)c2)c(C)c1 | i | -20 | -2 | -4 | -70 | 1 | -10 | /
COc1ccc(C(=O)Nc2ccc(C(=O)OCC(=O)c3cccc4ccccc34)cc2)cc1 | ? | -7 | 0 | -10 | 4 | 5 | 3 | 3
COc1ccccc1N1C(=S)N=C(Nc2c(C)cccc2C)C12CCCC2 | i | / | -6 | 0 | -12 | 1 | 6 | 2
NC(=S)c1ccc(C(N)=S)o1 | i | -27 | 27 | -3 | -19 | 1 | 3 | -10
O=C(O)C1Sc2[nH]c(=O)sc2C2c3cc(Br)ccc3OC(=O)C12 (stereo unspecified) | i | / | ? | ? | 0 | -24 | 9 | 2

Random excerpt: five entries already listed
SMILES | Rce1 inhib | Yeast UUG start | PABP FP inh | eIF4H inh | Env fusion inh | MT1-MMP act inh | MT1-MMP act inh RFP | CSC inhib | others
CC1CC1c1ccc(/C=C(\C#N)C(=O)Nc2ccc(Cl)cc2Cl)o1 (stereo unspecified) | i | / | -2 | 2 | -20 | -7 | 2 | 37
Cc1ccccc1CS(=O)(=O)c1nnc([C@H](Cc2ccccc2)NC(=O)OC(C)(C)C)o1 | i | -15 | -7 | 1 | / | 14 | -2 | 99*
COc1ccc(NC(=O)c2nn(C)cc2[N+](=O)[O-])cc1 | i | / | 4 | -5 | -14 | 3 | -3 | 0
Oc1ccc(Br)cc1C=Nc1ccc2[nH]ncc2c1 | i | -7 | -4 | 53 | 12 | 3 | -1 | 0 | eIF4H inh retest=-1;PABP FP inh retest=-1
CCN1C(=O)[C@H]2[C@@H](c3ccc(C)cc3)N[C@]3(CCCN(CCC(C)C)C3=O)[C@H]2C1=O | / | -18 | / | / | 28 | 4 | 6 | /

Next part
SMILES | Rce1 inhib | Yeast UUG start | PABP FP inh | eIF4H inh | Env fusion inh | MT1-MMP act inh | MT1-MMP act inh RFP | CSC inhib | others
NS(=O)(=O)c1ccc(N2N=C(c3ccccc3)CC2c2ccc(Br)cc2)cc1 (stereo unspecified) | / | -18 | / | / | -57 | -9 | -3 | /
CN(C(=O)c1ccc(NC(=O)C2CCCN(C(=O)OC(C)(C)C)C2)cc1)C1CCC1 (stereo unspecified) | / | -4 | / | / | 7 | 7 | -11 | /
CC(=O)Nc1ccc(CN2C(=O)C(C)ON=C2c2ccccc2-c2ccco2)cc1 (stereo unspecified) | / | -16 | / | / | 15 | 3 | 5 | /
CC(C)Cn1c(=O)c2c(nc3n2CC(C)CN3Cc2ccccc2)n(C)c1=O (stereo unspecified) | i | -2 | 2 | 0 | 4 | 3 | -2 | 13
CCn1c(COc2ccccc2OC)nnc1SCC#N | i | -14 | -10 | 6 | -38 | 2 | 2 | 5
O=C(CSc1nncc2ccccc12)Nc1ccc(C(=O)O)cc1 | i | -11 | 20 | 5 | 1 | 2 | 8 | 21
COc1cc(C(=O)OCC(=O)Nc2ccc3c(c2)OC(F)(F)O3)ccc1OCc1c(C)noc1C | i | 60 | 8 | 2 | -17 | 2 | 3 | -2
CCOC(=O)c1sc(NC(=O)CCC(=O)O)nc1C | i | -8 | 1 | 11 | -10 | 8 | 7 | -30
O=c1ncn(-c2ccccc2F)c2ncccc12 | i | -19 | -2 | 1 | -58 | 7 | 6 | -4
Cc1cc(NC(=O)CN2C(=O)c3ccccc3S2(=O)=O)no1 | i | -10 | 12 | -2 | -13 | -2 | 1 | -5
COc1ccc(C(=O)NCCS(=O)(=O)N2CCc3ccccc3C2)c(OC)c1 | i | 9 | / | / | 3 | 1 | 5 | /
O=C(COC(=O)CN1C(=O)c2ccccc2C1=O)NC1CCCCC1 | i | 1 | -8 | -12 | 19 | 0 | 0 | /
COCC(=O)N(Cc1ccccc1)c1ccccn1 | i | -5 | -6 | -4 | 12 | -3 | 2 | -6
Cc1cnc(C(=O)OCC(=O)Nc2ccc(Oc3ccccc3)cc2)cn1 | i | -1 | 1 | 5 | / | 2 | -1 | 3
CN(C)S(=O)(=O)N1CCN(c2ccc(Cl)cc2)CC1 | i | -14 | -4 | -3 | -4 | 3 | -1 | /
O=C(NCCCN1CCOCC1)c1cc2c(s1)-c1ccccc1OC2 | i | -9 | -9 | -2 | 8 | 5 | 5 | 18
O=C(NC(=O)c1ccccc1)NC1(C(F)(F)F)OCCO1 | i | / | 2 | -8 | / | / | / | -6
